Screening data from PubChem BioAssay.
Peg3 imprint – genomic imprint erasure induction; Potency, µM (doses to about 60.7 µM), for inactives: at the top dose activity change, positive = activation, usual class: activators; 110,000 tested, 0.02% active; mouse ES Peg3-LacZ reporter, beta-gal luminescence, 40 h; active = well fitted activation curve with a large enough effect; inconclusive = small, poorly fitted or top-dose-only effect; inactive = no such curve, though single readings can be large or run the other way;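 note: 0% = negative control wells on the plate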
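Readout: BetaGlo luminescence (5 min, room temp) for LacZ from the normally silent maternal Peg3 allele in female Peg3LacZ-Neo ES cells. Cells 300/well, 40 h, 37C, 5% CO2. Data normalized per plate to negative controls.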
IkB sig inh – IkB pathway inhibition in ABC-DLBCL cells. ABC-DLBCL IkBa-CBG/CBR dual luciferase ratio, 4 h; response scale: scaled: untreated 0%, proteasome inhibitor 100%. AID 445. 110,000 tested, 0.04% active. Potency, µM (top dose mostly 57.1 µM), for the others: at the highest dose IkBa stabilization activation; active = well fitted curve in the direction sought with a large enough effect in the signal ratio, not every such curve was filed as active; inconclusive = small, poorly fitted or top-dose-only effect, or a change in a side signal; the % refers to the signal ratio;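 note: the direction sought is a rising ratio; 0% = basal untreated cells and 100% = reference inhibitor full response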
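Curves were fitted separately to fusion (green), unfused (red) and ratio luminescence, then classed by r2, magnitude and activity. Cells: OCI-Ly3, 4 h compound plus doxycycline at 37C; 10 uM MG-132 defined full response.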
* = called active by the depositor; ? = inconclusive; . = not tested or not shown; & = joins results of further samples; [ ] = dose if it differs, or a comment. Potency is the fitted concentration of half-maximal effect.

SMILES	Peg3 imprint	IkB sig inh
CCOC(=O)C1=C(C)NC(C)=C(C(=O)OC)C1c1cccc(Cl)c1Cl (stereo not drawn)	-15%	.
CNC(=O)Oc1ccc2c(c1)[C@]1(C)CCN(C)[C@@H]1N2C	-7%	.
O=c1c2ccccc2oc2ccccc12	-55%[inhibitor]	.
O=C1N=C(O)CN1/N=C/c1ccc(-c2ccc([N+](=O)[O-])cc2)o1	-3%	.
O=C(O)c1cccnc1	-8%	1.8%[25.6 µM]
Cc1ccccc1Br	-3%	0.2%
CC(=O)OCC(=O)[C@@]1(O)CC[C@H]2[C@@H]3CCC4=CC(=O)CC[C@]4(C)[C@H]3C(=O)C[C@@]21C	5%	.
C[C@@H]1C[C@@H]2[C@H]3CCC4=CC(=O)C=C[C@]4(C)[C@]3(F)[C@@H](O)C[C@]2(C)[C@@]1(O)C(=O)CO	-10%[16.8 µM]	?
COc1cc2nc(N(C)CCCNC(=O)[C@@H]3CCCO3)nc(N)c2cc1OC	-12%[16.8 µM]	-0.1%[25.6 µM]
CC(C)c1ccc2oc(-c3ccc(Cl)c(NC(=O)c4cccs4)c3)nc2c1	-14%[10.9 µM]	?
CCN(CC)S(=O)(=O)c1cccc(C(=O)Nc2ccc(Cl)cn2)c1	-15%	?
COC1C=CO[C@@]2(C)Oc3c(C)c(O)c4c(O)c(c(C=NN5CCN(C)CC5)c(O)c4c3C2=O)NC(=O)/C(C)=C\C=CC(C)C(O)[C@@H](C)C(O)C(C)[C@H](OC(C)=O)C1C (stereo partly drawn)	-10%	.
CSc1nc(-c2ccccc2)nc2[nH]ccc(=O)c12	-5%	-0.6%
C[C@@]12CC[C@@H]3c4ccc(O)cc4CC[C@H]3[C@H]1C[C@@H](O)[C@H]2O	2%[16.8 µM]	1.2%[25.6 µM]
NC(N)=NCCN1CCCCCCC1	-31%[inhibitor]	-1.1%[25.6 µM]
Oc1cccc(Nc2ccccc2)c1	-4%	0.6%
NC[C@H](O)c1ccc(O)c(O)c1	-23%&20%	1.9%&-1.2%
COc1cc([C@H]2c3cc4c(cc3[C@@H](O[C@H]3O[C@H]5CO[C@@H](C)O[C@H]5[C@@H](O)[C@@H]3O)[C@@H]3COC(=O)[C@H]23)OCO4)cc(OC)c1O	-33%[16.8 µM]	1.7%[25.6 µM]
C=CC(=O)OCCOCCOCCOCCOC(=O)C=C	-23%&-24%	?
Nc1nc(=S)c2[nH]cnc2[nH]1	-34%[inhibitor]	.

3 structures out of the list, ordered by length of the SMILES, smallest number first.
SMILES	Peg3 imprint	IkB sig inh
CSc1nc(-c2ccccc2)nc2[nH]ccc(=O)c12	-5%	-0.6%
COc1cc([C@H]2c3cc4c(cc3[C@@H](O[C@H]3O[C@H]5CO[C@@H](C)O[C@H]5[C@@H](O)[C@@H]3O)[C@@H]3COC(=O)[C@H]23)OCO4)cc(OC)c1O	-33%[16.8 µM]	1.7%[25.6 µM]
COC1C=CO[C@@]2(C)Oc3c(C)c(O)c4c(O)c(c(C=NN5CCN(C)CC5)c(O)c4c3C2=O)NC(=O)/C(C)=C\C=CC(C)C(O)[C@@H](C)C(O)C(C)[C@H](OC(C)=O)C1C (stereo partly drawn)	-10%	.

Remaining list, next part
SMILES	Peg3 imprint	IkB sig inh
O=C(CCSCCc1ccncc1)NCCCN1CCOCC1	0%	0.7%
CCC1OC(=O)C(C)[C@@H](O[C@H]2C[C@@](C)(OC)C(O)C(C)O2)C(C)[C@@H](O[C@@H]2OC(C)CC(N(C)C)C2O)[C@](C)(O)CC(C)/C(=N\OCOCCOC)[C@H](C)C(O)[C@]1(C)O (stereo partly drawn)	-12%	.
C[N+](C)(C)CCOP(=O)([O-])OP(=O)(O)OCC1OC(n2ccc(N)nc2=O)C(O)C1O (stereo not drawn)	2%	.
O=C(OC[C@@H](O)CO)c1ccccc1Nc1ccnc2cc(Cl)ccc12	-22%[16.8 µM]	1.3%[25.6 µM]
CN(C)CC[C@H](c1ccc(Cl)cc1)c1ccccn1	-25%[16.8 µM]	1.8%[25.6 µM]
O=C(OCC(O)CO)c1ccccc1Nc1ccnc2cc(Cl)ccc12 (stereo not drawn)	-44%[inhibitor]	.
CN1CCC[C@@H]1c1cccnc1	.	6.8%
CC1OC(OC2C(CO)OC(OC3C(CO)OC(O)C(O)C3O)C(O)C2O)C(O)C(O)C1NC1C=C(CO)C(O)C(O)C1O (stereo not drawn)	-7%	.
COc1cccc2c1C(=O)c1c(O)c3c(c(O)c1C2=O)C[C@@](O)(C(C)=O)C[C@@H]3O[C@H]1C[C@H](N)[C@H](O)[C@H](C)O1	-38%&-17%&-35%[inhibitor]	?
COc1ccc(N)c(C)c1	-9%	-1.4%
CC1(C)OC2CC3C4CC(F)C5=CC(=O)C=CC5(C)C4C(O)CC3(C)[C@]2(C(=O)CO)O1 (stereo partly drawn)	-22%	.
C[C@]12CCC(=O)C=C1CCC1C2C(O)C[C@]2(C)C1CC[C@]2(O)C(=O)CO (stereo partly drawn)	14%	.
CCN(CC)CCOC(=O)C1(C2CCCCC2)CCCCC1	-19%	1.9%[25.6 µM]
CN(C)[C@@H]1C(=O)C(C(N)=O)=C(O)[C@]2(O)C(=O)C3=C(O)c4c(O)ccc(Cl)c4[C@H](O)[C@H]3C[C@@H]12	-15%[16.8 µM]	0.2%[25.6 µM]
Cc1nnc(SCC2=C(C(=O)O)N3C(=O)[C@@H](NC(=O)Cn4cnnn4)[C@@H]3SC2)s1	-6%[16.8 µM]	0.6%[25.6 µM]
CCOc1ccc(Cl)cc1/C=N/O	3%	-4.4%
O=C(O)C1=C[C@@H](O)[C@@H](O)[C@H](O)C1	8%	.
O=C1CC2(CCCC2)CC(=O)N1CCCCN1CCN(c2ncccn2)CC1	-10%	?
C[C@@H]1C(=O)NC2=Nc3cccc(Cl)c3CN21	-6%	0.1%
O=C(O)/C=C\c1ccc(O)c(O)c1	-1%[16.8 µM]	1.5%[11.4 µM]
CC(C)(Oc1ccc(CCNC(=O)c2ccc(Cl)cc2)cc1)C(=O)O	16%	0.2%[25.6 µM]
NC(CO)(CO)CO	-9%	.
CS(=O)(=O)Nc1ccc([N+](=O)[O-])cc1Oc1ccccc1	-14%	0.4%[25.6 µM]
CCN(CC)C(=O)c1cccc(C)c1	-10%&0%	0.1%
CN(C)C1C(=O)C(C(N)=O)=C(O)[C@@]2(O)C(=O)C3=C(O)c4c(O)ccc(Cl)c4[C@@H](O)C3C[C@@H]12 (stereo partly drawn)	-12%	.
Clc1ccc2c(c1)C(N1CCNCC1)=Nc1ccccc1O2	-30%[inhibitor]	3.1%[25.6 µM]
O=C(O)[C@@H](O)[C@H](O)C(=O)O	1%[10.9 µM]	-0.5%[11.4 µM]
CCCCc1nc(Cl)c(CO)n1Cc1ccc(-c2ccccc2-c2nn[nH]n2)cc1	-23%	.

22 entries from above, in CSV form:
smiles,Peg3 imprint,IkB sig inh
CN1CCC[C@@H]1c1cccnc1,.,6.8%
CC1OC(OC2C(CO)OC(OC3C(CO)OC(O)C(O)C3O)C(O)C2O)C(O)C(O)C1NC1C=C(CO)C(O)C(O)C1O (stereo not drawn),-7%,.
COc1cccc2c1C(=O)c1c(O)c3c(c(O)c1C2=O)C[C@@](O)(C(C)=O)C[C@@H]3O[C@H]1C[C@H](N)[C@H](O)[C@H](C)O1,-38%&-17%&-35%[inhibitor],?
COc1ccc(N)c(C)c1,-9%,-1.4%
CC1(C)OC2CC3C4CC(F)C5=CC(=O)C=CC5(C)C4C(O)CC3(C)[C@]2(C(=O)CO)O1 (stereo partly drawn),-22%,.
C[C@]12CCC(=O)C=C1CCC1C2C(O)C[C@]2(C)C1CC[C@]2(O)C(=O)CO (stereo partly drawn),14%,.
CCN(CC)CCOC(=O)C1(C2CCCCC2)CCCCC1,-19%,1.9%[25.6 µM]
CN(C)[C@@H]1C(=O)C(C(N)=O)=C(O)[C@]2(O)C(=O)C3=C(O)c4c(O)ccc(Cl)c4[C@H](O)[C@H]3C[C@@H]12,-15%[16.8 µM],0.2%[25.6 µM]
Cc1nnc(SCC2=C(C(=O)O)N3C(=O)[C@@H](NC(=O)Cn4cnnn4)[C@@H]3SC2)s1,-6%[16.8 µM],0.6%[25.6 µM]
CCOc1ccc(Cl)cc1/C=N/O,3%,-4.4%
O=C(O)C1=C[C@@H](O)[C@@H](O)[C@H](O)C1,8%,.
O=C1CC2(CCCC2)CC(=O)N1CCCCN1CCN(c2ncccn2)CC1,-10%,?
C[C@@H]1C(=O)NC2=Nc3cccc(Cl)c3CN21,-6%,0.1%
O=C(O)/C=C\c1ccc(O)c(O)c1,-1%[16.8 µM],1.5%[11.4 µM]
CC(C)(Oc1ccc(CCNC(=O)c2ccc(Cl)cc2)cc1)C(=O)O,16%,0.2%[25.6 µM]
NC(CO)(CO)CO,-9%,.
CS(=O)(=O)Nc1ccc([N+](=O)[O-])cc1Oc1ccccc1,-14%,0.4%[25.6 µM]
CCN(CC)C(=O)c1cccc(C)c1,-10%&0%,0.1%
CN(C)C1C(=O)C(C(N)=O)=C(O)[C@@]2(O)C(=O)C3=C(O)c4c(O)ccc(Cl)c4[C@@H](O)C3C[C@@H]12 (stereo partly drawn),-12%,.
Clc1ccc2c(c1)C(N1CCNCC1)=Nc1ccccc1O2,-30%[inhibitor],3.1%[25.6 µM]
O=C(O)[C@@H](O)[C@H](O)C(=O)O,1%[10.9 µM],-0.5%[11.4 µM]
CCCCc1nc(Cl)c(CO)n1Cc1ccc(-c2ccccc2-c2nn[nH]n2)cc1,-23%,.

Not all compounds are listed, and most or all hits are left out here.
